From PubChem BioAssay
A488 autofl: qHTS Assay for Spectroscopic Profiling in A488 Spectral Region; compound autofluorescence, A488 spectral region, dye equivalency; hits give high values; max dye equivalency, M; AID 591, 2007; 59,000 compounds, 0.1% hits; active = above 10 nM dye equivalent; inconclusive = 1 to 10 nM; inactive = 1 nM or less; about half of its hits are not listed in these tables;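 also: highest value over a series up to 38 µM; compound alone in buffer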
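Autofluorescence read at ex 480/em 540 nm after 15 min RT in 100 mM Tris pH 8.0; compound signal normalized to A488 standard series on each plate, reported as dye-equivalent concentration at each test concentration.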
AID923: qHTS Assay for Allosteric/Competitive Inhibitors of Caspase-1: Spectroscopic Profiling in AFC Spectral Region. compound fluorescence, AFC spectral region (405/520 nm); almost no hit is shown here. Potency, µM (titrated, usually from 57.5 µM), for inactives: at the highest dose fluorescence increase, hits mostly activators. 75,000 compounds, 1.1% hits; active = well fitted activation curve with a large enough effect; inconclusive = small, poorly fitted or top-dose-only effect;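 also: potency is read from the fitted curve at half-maximal effect; 0% is about no effect; scaled to a free AFC standard on each plate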
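Compound autofluorescence profiled at 405 nm ex/520 nm em during kinetic caspase 1 run (50 nM enzyme, 5 uM Ac-WEHD-AFC, HEPES pH 7.5, 10 mM DTT). Titration up to 57 uM; baseline from regression intercept, normalized to AFC standard curve.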
Resorufin autofl: qHTS Assay for Spectroscopic Profiling in Resorufin Spectral Region; 59,000 compounds, 0.04% hits; max dye-equivalent concentration, M; AID 588, 2007; Compound fluorescence, resorufin region 547/598 nm, buffer; hits give high values; active = above 10 nM dye equivalent; inconclusive = 1 to 10 nM; inactive = 1 nM or less; a few of its hits are not listed in these tables; also: highest value over a series up to 38 µM
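Read-out: intrinsic compound fluorescence at ex 547/em 598 nm after 15 min at RT in pH 8.0 Tris (100 mM). Values expressed as resorufin-equivalent concentration from per-plate standard series.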
TSHR ag: qHTS Assay for Agonists of the Thyroid Stimulating Hormone Receptor; Thyrotropin receptor (Homo sapiens), P16473; HEK293-CNG-TSHR cells (CNG channel as cAMP sensor), membrane potential dye, cAMP; Potency, µM (highest dose often 57.1 µM), inactives show at the highest dose activation, actives largely listed as activators; 73,000 compounds, 0.48% hits; AID 926, 2007; active = well fitted activation curve of enough size with the parental cells flat; inconclusive = any curve in the parental cells; inactive = parental cells flat and receptor cells flat or falling; also: potency is read from the fitted curve at half-maximal effect; % of control where 0% means no effect; weak receptor curves with flat parental cells got no call and are not listed
Target sequence (P16473 whole entry, looked up): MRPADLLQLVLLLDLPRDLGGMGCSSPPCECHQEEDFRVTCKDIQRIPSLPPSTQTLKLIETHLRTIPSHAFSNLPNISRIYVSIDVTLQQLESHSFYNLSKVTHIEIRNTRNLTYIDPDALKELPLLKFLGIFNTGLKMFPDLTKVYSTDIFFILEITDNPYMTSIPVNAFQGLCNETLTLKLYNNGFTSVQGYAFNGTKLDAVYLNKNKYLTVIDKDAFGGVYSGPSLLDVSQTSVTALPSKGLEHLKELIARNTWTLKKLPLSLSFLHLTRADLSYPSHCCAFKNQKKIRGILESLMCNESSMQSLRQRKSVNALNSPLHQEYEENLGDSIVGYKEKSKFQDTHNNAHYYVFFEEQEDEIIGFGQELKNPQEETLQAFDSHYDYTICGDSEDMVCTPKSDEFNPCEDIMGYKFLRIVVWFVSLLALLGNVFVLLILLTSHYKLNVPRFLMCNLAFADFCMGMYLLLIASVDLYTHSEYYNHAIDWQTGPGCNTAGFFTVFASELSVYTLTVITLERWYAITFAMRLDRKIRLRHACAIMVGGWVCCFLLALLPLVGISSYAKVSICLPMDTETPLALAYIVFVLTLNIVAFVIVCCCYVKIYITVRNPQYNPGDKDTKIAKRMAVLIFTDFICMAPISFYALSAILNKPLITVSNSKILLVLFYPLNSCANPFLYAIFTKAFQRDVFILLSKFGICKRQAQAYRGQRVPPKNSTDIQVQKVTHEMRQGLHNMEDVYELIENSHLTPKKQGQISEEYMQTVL
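cAMP rise detected as CNG-channel membrane depolarization by fluorescent dye (emission 590 nm), 30 min after compound, following 60 min dye loading containing 100 uM RO 20-1724 at room temperature. Cells: TSHR/CNG HEK 293, with parental CNG HEK 293 as control.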
A647 autofl: qHTS Assay for Spectroscopic Profiling in A647 Spectral Region | Compound fluorescence, A647 channel (570/671 nm), Tris buffer | max dye-equivalent concentration, M | 59,000 tested, under 10 active | AID 592, 2007; active means above 1 µM dye equivalent; inconclusive means 0.1 to 1 µM; inactive means 0.1 µM or less;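 also: values scaled relative to a standard on each plate; highest value over a series up to 38 µM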
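Fluorescence read (570 nm ex, 671 nm em) after 15 min RT incubation of compounds in 100 mM Tris buffer, pH 8.0; values expressed as dye-equivalent concentration against a six-point A647 standard series on each plate.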
* marks the source's active call; other numbers are inactive results; i = inactive; ? = inconclusive; · = not tested or not shown; [ ] = another dose, or the depositor's remark.

SMILES | A488 autofl | AID923 | Resorufin autofl | TSHR ag | A647 autofl
CO[C@@H]1COC(=O)[C@@H](C)NC(=O)C/C=C\[C@@H](C)[C@H](NS(=O)(=O)c2ccc(C)cc2)COC(=O)[C@H](C)NC(=O)C/C=C\[C@H]1C | · | -2.8%[11.5 µM] | · | 10%[11.4 µM] | ·
CC(=O)C1(O)C(C)CC2C3CCC4CC(O)CCC4(C)C3=CCC21C (centres undefined) | · | 3.8% | · | ? | ·
COC(=O)c1cc(-c2c(C)oc3cc(OC)ccc3c2=O)c(C)o1 | i | -0.2% | i | ? | 2.8e-08
Cc1c(Br)c(C(F)(F)F)nn1CC(=O)N1CCCC1 | · | -0.2% | · | 12% | ·
O=C(O)C1C2C=CC(C2)C1C(=O)NC1CCN(Cc2ccccc2)CC1 (centres undefined) | i | -5.6% | i | -1% | 1e-09
O=C(Cn1cc2c(n1)CCCC2)NCCCN1CCCC1 | · | 0.9% | · | 2% | ·
CCOC(=O)c1cn(-c2ccccc2)nc1-c1cccnc1 | · | -0.1% | · | 6% | ·
COc1ccc(CN2CCN(C(=O)c3cccs3)CC2)cc1Br | · | 0.3% | · | 25% | ·
CC(CN1CCCC(C(N)=O)C1)c1ccccc1 (centres undefined) | · | 11% | · | -3% | ·
CSc1cccc(NC(=O)CN(C)S(=O)(=O)c2ccc(F)cc2)c1 | i | -2.4% | i | -20% | 1e-09
O=C(O)c1cccc(CSc2nnc(Cc3ccccc3)o2)c1 | i | -0.9% | i | 23% | 4.3e-09
COc1ccc(C(=O)CCN2CCCCCC2)cc1 | i | · | i | · | 1e-09
COc1ccc(CC(=O)Nc2cc(C)on2)cc1 | i | 0.4% | i | 4% | 2.1e-09
Cn1c(CCC(=O)Nc2ccc(N3CCOCC3)cc2)nc(=O)c2ccccc21 | i | -1.1% | i | 9% | 1.9e-09
COc1cc(NC2c3ccccc3C(=O)N2c2ccc(C)cn2)cc(OC)c1OC (centres undefined) | · | 1.5% | · | 19% | ·
CC1(C)OCC(CSC2=C(SCC3COC(C)(C)O3)C(=O)c3ncccc3C2=O)O1 (centres undefined) | · | 8.1% | · | 3% | ·
N#CCCn1c(=O)cnc2cnc(Oc3cccc(Cl)c3)nc21 | i | 0.8% | i | -13% | 2.7e-09
Cc1cc(C)n(CC2CC(=O)N(c3ccc(F)c(Cl)c3)C2=O)n1 (centres undefined) | i | · | i | · | 3e-08
Cn1cc(S(=O)(=O)Nc2ccc(F)cc2F)c(=O)n(C)c1=O | · | -2.9% | · | 2.5µM* | ·
CCOC(=O)N1CCC(NC(=O)c2cc(C)c3c(C)nn(-c4ccccc4)c3n2)CC1 | i | 0.9% | i | 6% | 1.9e-08
CCOC(=O)c1c(NS(=O)(=O)c2cccc(OC)c2)sc2c1CCC2 | i | -2.1% | i | 11% | 1e-09
O=C(NC12CC3CC(CC(C3)C1)C2)C1=COCCO1 | i | 1.7% | i | 4% | 1e-09
CC(C)NCC(O)COc1c(F)cc(Br)cc1F (centres undefined) | i | -0.2% | i | -3%[11.4 µM] | 5.8e-09
Nc1nc(-c2ccc(Cl)cc2)nn1C(=O)c1cccnc1 | i | -0.4% | i | -3% | 4.2e-09
Cc1ccc2c(c1)NC(=O)C(CC(=O)O)O2 (centres undefined) | · | -0.3% | · | 11% | ·
O=C(c1cc(-c2ccncc2)nc2ccccc12)N1CCN(c2ccc(N3CCOCC3)nn2)CC1 | i | 0.0% | i | 0% | 2.5e-08
Cc1ccnc(N2CCN(c3cc(C)c(C#N)c4nc5ccccc5n34)CC2)c1 | i | · | i | · | 8e-08
CC1=C(C(=O)NC(C)c2ccc3c(c2)OCCO3)C2(CCC(C)CC2)OC1=O (centres undefined) | · | -5.0% | · | ? | ·
O=c1onc2n1-c1cc(Br)ccc1OC2 | i | -2.8% | i | · | 1e-09
Cn1c(=O)c2c(-c3ccccc3)n(-c3ccccc3O)cc2n(C)c1=O | i | -0.9% | i | 1% | 1e-09
CCn1cnc2sc(C(=O)N(Cc3ccc(N(C)C)cc3)Cc3ccco3)c(C)c2c1=O | i | 1.5% | i | · | 1e-09
O=C(c1ccco1)N1CCN(C(c2ccccc2Cl)c2nnnn2Cc2ccco2)CC1 (centres undefined) | i | -2.7% | i | ? | 5e-08
CC(=O)N1CCC2(CC1)CC(=O)c1cc(OCC(=O)NCc3ccc(C)cc3)ccc1O2 | i | 17% | i | 4% | 1e-09
N#Cc1cc(-c2ccccc2)oc1NC(=O)c1ccco1 | i | -1.4% | i | 5% | 3.3e-09
O=C(CCN1C(=O)C2C3C=CC(C3)C2C1=O)Nc1ccc2c(c1)OCO2 (centres undefined) | i | 0.0% | i | 6% | 2.3e-08
COc1ccc(C)cc1S(=O)(=O)Nc1ccccc1C | i | -0.4% | i | -6% | 2.1e-08
COc1ccc(Cl)cc1C(=O)CSc1nc(N)cc(N)n1 | i | 0.9% | i | 13% | 1e-09
O=C1c2ccc(Oc3ccc4c(c3)C(=O)N(CCCCO)C4=O)cc2C(=O)N1CCCCO | i | -0.9% | i | 10% | 3.1e-08
O=C(O)CSCC(=O)NCc1ccccc1 | i | 1.5% | i | 0% | 5e-09
CCOc1ccc(-n2cnnn2)cc1S(=O)(=O)N1CCCCC1 | i | 0.8% | i | 2% | 3.2e-08

Part of the list above, as a markdown table.
| SMILES | A488 autofl | AID923 | Resorufin autofl | TSHR ag | A647 autofl |
| --- | --- | --- | --- | --- | --- |
| COc1ccc(C)cc1S(=O)(=O)Nc1ccccc1C | i | -0.4% | i | -6% | 2.1e-08 |
| N#Cc1cc(-c2ccccc2)oc1NC(=O)c1ccco1 | i | -1.4% | i | 5% | 3.3e-09 |
| Cn1c(=O)c2c(-c3ccccc3)n(-c3ccccc3O)cc2n(C)c1=O | i | -0.9% | i | 1% | 1e-09 |
| Nc1nc(-c2ccc(Cl)cc2)nn1C(=O)c1cccnc1 | i | -0.4% | i | -3% | 4.2e-09 |

The list continues.
SMILES | A488 autofl | AID923 | Resorufin autofl | TSHR ag | A647 autofl
c1cc(-c2nc3cc(Cc4ccc5oc(-c6ccncc6)nc5c4)ccc3o2)ccn1 | i | 2.0% | i | 4% | 4e-09
Cc1cc(C)cc(NC(=O)CSc2nnc(Cc3cccn3C)n2-c2ccc(F)cc2)c1 | · | -0.4% | · | -3% | ·
Cc1nc(N2CCN(C(=O)c3ccco3)CC2)c2oc3ccccc3c2n1 | i | -0.8% | i | 29% | 7.2e-09
CCOc1ccc(N(CC(=O)Nc2ccc(C)cc2)S(=O)(=O)c2c(C)noc2C)cc1 | · | -2.1% | · | 3% | ·
COc1ccc(-c2[nH]nc3c2C(c2ccccc2OC(=O)N2CCOCC2)C(C#N)=C(N)O3)cc1 (centres undefined) | i | -2.1% | i | 15% | 2.6e-08
O=C(CSc1nncc2ccccc12)N1CCOCC1 | i | 0.1% | i | 0% | 1.1e-08
O=C(c1csnn1)N1CCC[C@@]2(CCN(Cc3cc(C(F)(F)F)cc(C(F)(F)F)c3)C2)C1 | i | 0.5% | i | ? | 3.1e-08
COC(=O)c1ccc(C(=O)OC)c(NC(=O)Nc2ccc3c(c2)OCO3)c1 | i | 1.6% | i | 0% | 2.5e-08
CN1CCN(C(=O)C2CC(c3c(F)cccc3Cl)=NO2)CC1 (centres undefined) | i | -0.6% | i | 3% | 6.3e-08
CS(=O)(=O)N1CCC[C@@]2(CCN(C(=O)Nc3ccccc3)C2)C1 | i | -1.1% | i | 4% | 1.1e-08
Cc1ccc(NC(=O)CS(=O)CC(=O)N(C2CCCC2)C(C)C(=O)NC2CCCCC2)cc1 (centres undefined) | i | -3.8% | i | 0% | 1e-09
CCC(=O)NC1(C(F)(F)F)C(=O)NC(C)=C1C#N (centres undefined) | i | 0.3% | i | -1% | 1e-09
CC1CCC(n2c(=S)[nH]c3ccccc3c2=O)CC1 (centres undefined) | · | -1.0% | · | 18% | ·
CSc1cc(C)nc(NC(C)=O)n1 | i | 2.9% | i | -1% | 2.2e-09
CS(=O)(=O)N1CCC(C(=O)Nc2ccc(Oc3ccccc3)cc2)CC1 | i | -0.8% | i | 4% | 1e-09
CCOC(=O)C1=C(C)N=c2s/c(=C3\C(=O)Nc4ccccc43)c(=O)n2C1c1ccc2c(c1)OCO2 (centres undefined) | i | -3.0% | i | -9% | 1.7e-08
O=C(CCCOc1ccc(Cl)cc1)Nc1nncs1 | i | 1.1% | i | 8% | 1e-09
COc1cc2c(cc1OC)C1=C(C#N)CN(C3CCCCC3)CN1CC2 | · | 4.6% | · | 28% | ·
O=C(O)c1sccc1S(=O)(=O)Nc1ccc(Cl)cc1 | · | -3.5% | · | ? | ·
CCCCn1cnc2c(c1=O)c1nc3ccccc3nc1n2Cc1ccc2c(c1)OCO2 | i | · | i | · | 1.8e-09

Individual results from above.
For TSHR ag, Cc1cc(C)cc(NC(=O)CSc2nnc(Cc3cccn3C)n2-c2ccc(F)cc2)c1 shows -3%
For TSHR ag, c1cc(-c2nc3cc(Cc4ccc5oc(-c6ccncc6)nc5c4)ccc3o2)ccn1 shows 4%
For A647 autofl, O=C(c1csnn1)N1CCC[C@@]2(CCN(Cc3cc(C(F)(F)F)cc(C(F)(F)F)c3)C2)C1 shows 3.1e-08
For AID923, COc1cc2c(cc1OC)C1=C(C#N)CN(C3CCCCC3)CN1CC2 shows 4.6%
For A647 autofl, COC(=O)c1ccc(C(=O)OC)c(NC(=O)Nc2ccc3c(c2)OCO3)c1 shows 2.5e-08

Continuation.
SMILES | A488 autofl | AID923 | Resorufin autofl | TSHR ag | A647 autofl
CC(C)(CC(=O)N1CCN(c2ccc(Cl)cc2)CC1)CC1=NS(=O)(=O)c2ccccc2N1 | i | 0.8% | i | ? | 1e-09
CCCN1C(=O)SC(CC(=O)Nc2ccccc2)C1=O (centres undefined) | i | 0.9% | i | -4% | 1.1e-08
O=C(N1CCN(Cc2ccccc2)CC1)C12CC3CC(CC(C3)C1)C2 | i | -1.5% | i | · | 2e-09
C=CCn1c(/N=C/c2ccc(N(C)C)cc2)nc2ccccc21 | i | 7.1% | i | -21% | 1e-09
O=C(NCc1ccc(Cl)cc1)c1cc(-c2ccco2)on1 | i | 1.3% | i | -3% | 1e-09
Cc1cc2ccccc2c(=O)n1CC(=O)NC1CCCCCC1 | i | 0.9% | i | 3% | 1e-09
COC(=O)c1sc2ccccc2c1NC(=O)c1cccs1 | i | 1.8% | i | ? | 2.9e-08
N#C[C@H](c1ccccc1)N1CCCN([C@@H](C#N)c2ccccc2)C1c1ccccc1O (some centres undefined) | i | -6.8%[11.5 µM] | i | 7%[11.4 µM] | 1e-09
COC(=O)c1noc(-c2ccc(OC)cc2)n1 | i | -1.5% | i | 14% | 5.5e-09
Cc1ccnc(NS(=O)(=O)c2ccc(NC(=O)C3CCCNC3=O)cc2)n1 (centres undefined) | i | 0.1% | i | ? | 2.1e-08
O=C(COC(=O)CNC(=O)c1ccco1)NCCN1C(=O)CSC1=O | i | -1.1% | i | -3% | 2.1e-09
CSc1ccc(-c2nnn(CC(=O)NCc3ccccc3)n2)cc1 | i | -3.1% | i | 1% | 6.6e-09
Cc1cc(C)n(Cc2nc3ccccc3n2C)n1 | · | 1.2% | · | -6% | ·
Cc1cc(Cl)c(S(=O)(=O)NCc2ccncc2)cc1OCC(N)=O | i | 2.2% | i | -3% | 1.8e-09
CC(C)CNc1cc(Cl)c(S(=O)(=O)NCC(C)C)cc1C(=O)O | · | 1.8% | · | ? | ·
Cc1ccc(S(=O)(=O)N(C)CCCC(=O)N2CCN(C=O)CC2)cc1 | i | -1.3% | i | 1% | 2.3e-09
Cc1cccc(CNc2ncnc3ccc(-c4cccnc4)cc23)c1 | i | -1.5% | i | ? | 1.7e-08
COC(=O)[C@@]1(Cc2ccccc2)[C@H]2c3cc(C(=O)N(C)C)n(Cc4ccccn4)c3C[C@H]2CN1C(=O)c1ccccc1 | · | 3.3% | · | ? | ·

An excerpt (hit frequency here may not be typical).
